# Screening results from PubChem.
# PrP UTR inh – inhibition of PrP 5' UTR reporter expression. inhibition, % (no concentration beside the values). 0.35% of 340,000 active. AID 488862. cell-based PrP 5' UTR mRNA reporter, plate reader;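 active = every replicate at 50% or more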;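 also: 0 = median of the neutral control wells; tested in H4 reporter cells; numbers are from one replicate; inactives centre near -14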
# Sa RN4220 lethal – S. aureus RN4220 growth inhibition | OD600, 16 h | inhibition, % (test concentration not listed) | 0.33% of 330,000 active;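 active = z-score of -3 or lower and OD600 up to 0.18 on both plates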;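 also: plate controls were untreated cells for no effect and reference antibiotic for full effect; stock transfer was 100 nL into about 80 µL; one replicate is shown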
# BJeLR lethal – kills HRASV12-expressing BJeLR cells. BJeLR (HRASV12) viability, CellTiter-Glo ATP luminescence, 48 h; reference of the scale not given here. inhibition, % (no concentration beside the values). 0.17% of 300,000 active;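 active = replicate mean above 50%; inconclusive = above 50% but judged a plate artefact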;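 also: 50 nL library stock added to about 25 µL; numbers are from one replicate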
# Bead autofluor – compound fluorescence in toxin protease inhibitor counterscreen. compound autofluorescence counterscreen, microsphere flow cytometry; active compounds read high. fluorescence intensity (test concentration not listed). 3.1% of 360,000 active. AID 624483;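 active = at least 3 SD above the mean of all compounds, about 16000 in these data; inconclusive = too few beads counted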;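 also: 100 nL of 1 mM stock went into each well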
# Mtb hypoxia inh – Mtb hypoxia fluorescent reporter inhibition; M. tuberculosis hypoxia-regulated fluorescent reporter, fluorescence; fluorescence inhibition, % (test concentration not listed); 0.1% of 300,000 active; AID 1159583;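 active = 35 to 45% if threefold the growth effect, above 45% if 1.5-fold the growth effect; inactive = the rest, general growth blockers included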;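 also: wells of about 50 µL received 100 nL stock; 0% = vehicle wells and 100% = reference inhibitor wells; whole bacteria with a GFP reporter of the hypoxia response; strong numbers were not always called active; many hits fall short of the cut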
# Sa ugtP lethal – growth inhibition of S. aureus ugtP deletion strain. S. aureus RN4220 ugtP deletion, OD600 growth, 16 h; some inactives read as strong as hits. growth inhibition, % (concentration not given with the values). 0.54% of 330,000 active. AID 1259309;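 active = z-score under -3 and OD600 up to 0.15 on both plates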;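 also: plate controls were untreated wells for no effect and antibiotic for full effect; wells of about 80 µL received 100 nL stock; the first replicate is given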
# Mtb hypoxia inh growth – also measured in Mtb hypoxia inh; calls as there; growth inhibition, %; measured here: M. tuberculosis growth (absorbance);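 0% = vehicle and 100% = reference antibiotic; read after six days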
# * hit, by the source's call; ? = inconclusive; nt = not tested or not shown.
1: Cc1nc2ccccc2c(=O)n1NC(=O)c1cc(Br)ccc1Cl
2: Cc1ccc(NS(=O)(=O)c2cc(Br)cnc2N)cc1C
3: Cc1cc(C)nc(N=C(N)N2CCc3ccccc32)n1
4: Cc1ccc(C)c(Cn2c(=O)n(CCCC(=O)NCc3ccco3)c(=O)c3sccc32)c1
5: Cc1ccc(Cl)cc1NS(=O)(=O)c1ccc(-n2cccn2)cc1
6: COc1ccc(OC)c(S(=O)(=O)NCc2nc3nc(C)cc(C)n3n2)c1
7: O=C(NCc1ccc2c(c1)OCO2)c1ccc(-n2cnnn2)cc1
8: CC1(C)CC(=O)C=C(c2cccc3c2sc2ccccc23)C1

assay / compound	1	2	3	4	5	6	7	8
PrP UTR inh	-16	1	nt	-25	2	-9	-8	-36
Sa RN4220 lethal	25	7.1	1.4	-1.4	20	4.8	4.0	-5.1
BJeLR lethal	9	6	nt	8	1	5	-8	nt
Bead autofluor	4496	6333	nt	3168	5916	5634	16294*	3145
Mtb hypoxia inh	10	3	5	4	1	6	4	9
Mtb hypoxia inh growth	4	5	3	-2	2	3	0	-2
Sa ugtP lethal	7	-5	-2	-4	-6	1	6	1

9: COC(=O)NN=Cc1cccc(OCCSc2ccc(Cl)cc2)c1
10: O=C(Nc1cccc2cccnc12)c1ccc(Cl)cc1Cl
11: Cc1ccc(-n2c(C)cc(C(=O)CN3C(=O)C(=O)N(C4CCCC4)C3=O)c2C)cc1
12: O=C1CCCc2ccc3ccccc3c21
13: O=C(O)c1cccc(-n2cccc2C=C2C(=O)c3ccccc3C2=O)c1
14: Cc1cc(C)cc(CC2CC(=O)N(c3cc(C)on3)C2=O)c1 (configuration not stated)
15: CC(C)Oc1ccc(C(=O)OCC(=O)NC(=O)NC2CCCC2)cc1
16: COc1ccccc1NC(=O)COc1ccc(C(F)(F)F)cc1[N+](=O)[O-]

assay / compound	9	10	11	12	13	14	15	16
PrP UTR inh	nt	-30	-11	-25	-2	-24	-14	-16
Sa RN4220 lethal	-1.5	-1.7	0.8	4.1	6.5	3.6	5.1	nt
BJeLR lethal	nt	-8	1	nt	-3	10	nt	3
Bead autofluor	nt	3439	4322	3330	2508	19958*	3078	2345
Mtb hypoxia inh	2	4	-5	8	10	-4	3	nt
Mtb hypoxia inh growth	-2	5	9	8	4	13	0	nt
Sa ugtP lethal	24	2	3	2	-2	3	17	nt

17: O=C(CCS(=O)(=O)Cc1ccccc1)Nc1ncc([N+](=O)[O-])s1
18: CCCCn1c(Cc2ccccc2)n[nH]c1=S
19: CCC(C)n1c(SCc2ccccc2)nc2ccsc2c1=O (configuration not stated)
20: COC(=O)[C@@H](NC(=O)NC1CCCCC1C)C(C)C (some centres not stated)
21: CC1(C)Cc2ccccc2-c2nc(NCCO)n(-c3ccccc3)c(=O)c21
22: CCOC(=O)C1CCN(C(=O)CN(c2ccc3c(c2)OCO3)S(C)(=O)=O)CC1
23: COc1ccc(C(=O)NNC(=O)c2ccc(C(C)(C)C)cc2)cc1
24: COc1cc(OC)c(OC)cc1CN1CCN(S(=O)(=O)c2ccc(NC(C)=O)cc2)CC1

assay / compound	17	18	19	20	21	22	23	24
PrP UTR inh	-29	-23	-23	-13	-27	-6	-19	-7
Sa RN4220 lethal	30	4.8	4.3	2.1	0.0	-0.5	4.0	4.7
BJeLR lethal	3	5	-5	-6	-9	-2	4	-7
Bead autofluor	5449	9337	7501	4796	4936	2248	2220	2747
Mtb hypoxia inh	7	19	1	6	nt	nt	-4	5
Mtb hypoxia inh growth	9	2	-1	5	nt	nt	15	-1
Sa ugtP lethal	12	-5	11	5	-2	0	1	7

25: CCOc1ccc(C(=O)OCC(=O)Nc2nc(OC)cc(OC)n2)cc1OCC
26: O=C(Nc1ccc2[nH]c(=O)[nH]c2c1)Nc1ccc(F)cc1F
27: Cc1ccc(NC(=O)c2ccc(=O)[nH]c2)cc1S(=O)(=O)N1CCCCCC1
28: O=C(CNC(=O)C1CCCCC1)OCC(=O)c1cccc(Cl)c1
29: CCC1CCCCN1Cc1nc2c(c(=O)n(C)c(=O)n2C)n1CC(C)C (configuration not stated)
30: N=c1c(C(=O)NCC2CCCO2)cc2c(=O)n3ccccc3nc2n1C1CCCC1 (configuration not stated)
31: O=C(CCn1c(SCC(=O)c2ccccc2)nc2ccccc2c1=O)NCc1ccc(F)cc1
32: CCOC(=O)CSc1nc2ccc(N)cc2s1

assay / compound	25	26	27	28	29	30	31	32
PrP UTR inh	-22	-30	-24	-38	-7	-25	-3	-46
Sa RN4220 lethal	3.5	3.5	7.8	-0.3	6.9	1.1	2.9	-9.8
BJeLR lethal	-4	-2	nt	nt	0	-1	3	0
Bead autofluor	23423*	4907	4228	8474	5935	5892	?	3057
Mtb hypoxia inh	3	12	8	6	-1	10	7	12
Mtb hypoxia inh growth	4	0	12	-1	2	1	10	7
Sa ugtP lethal	3	3	-1	4	3	-1	3	-12

33: O=C(Cc1cccc(F)c1F)NC1CCCN(Cc2ccc(Cl)cc2)C1 (configuration not stated)
34: CCOC(=O)c1cc(C(=O)c2cc(Cl)ccc2O)coc1=N
35: CCN(CC)S(=O)(=O)c1ccc2oc(C(=O)O)c(C)c2c1
36: CCC(Cc1ccccc1)=NNC(=O)c1cc(C)oc1C
37: O=C(Nc1ccon1)c1nc[nH]c1C(=O)NCc1ccccc1
38: COc1ccc(C(=O)CSc2cc(C)[nH]c(=O)n2)cc1
39: CCN1CCN(C(=O)CN(C)S(=O)(=O)c2ccc3ccccc3c2)CC1
40: Cc1nc(CNC(=O)CC2C(=O)NCCN2Cc2ccoc2)nc2c1CCCC2 (configuration not stated)

assay / compound	33	34	35	36	37	38	39	40
PrP UTR inh	-25	-41	-10	nt	4	-60	-6	-20
Sa RN4220 lethal	nt	8.3	0.0	-4.9	6.4	5.8	3.6	1.7
BJeLR lethal	-12	-4	-8	nt	nt	-5	-2	12
Bead autofluor	4640	2556	2627	nt	3641	nt	4535	4910
Mtb hypoxia inh	nt	6	nt	-3	-5	-3	15	0
Mtb hypoxia inh growth	nt	-6	nt	3	4	-3	3	1
Sa ugtP lethal	nt	0	-6	-4	-2	-11	7	5

41: CCOC(=O)C1=C(c2cccc(Oc3ccccc3)c2)NC(=S)NC1C (configuration not stated)
42: Cc1oc(-c2cccc(C(F)(F)F)c2)nc1CN1CCC[C@H]1CO
43: COc1ccccc1C(CC(=O)c1ccccc1)CC(=O)c1ccccc1
44: CC(=O)Nc1ccc(CNC(=O)C[N+]2(C)CCOCC2)cc1
45: COc1ccccc1NC(=O)C1=C(C)NC2=C(C(=O)CCC2)C1c1ccc2c(c1)OCO2 (configuration not stated)
46: O=c1ccc(-c2ccc(S(=O)(=O)NCC3CCN(Cc4ccccc4F)CC3)s2)n[nH]1
47: CS(=O)(=O)N1CCN(c2ccc([N+](=O)[O-])c(NCc3ccc(Cl)cc3)c2)CC1
48: CCCc1cc(C(=O)N2CCCC(N3CCN(c4ccccc4C)CC3)C2)n(C)n1 (configuration not stated)

assay / compound	41	42	43	44	45	46	47	48
PrP UTR inh	-79	-22	7	-28	-25	-26	-19	-13
Sa RN4220 lethal	18	4.0	2.2	4.0	-0.2	1.4	1.0	5.2
BJeLR lethal	-7	2	-7	-6	-2	-10	-4	1
Bead autofluor	4154	5209	2250	3847	9211	?	1981	5888
Mtb hypoxia inh	nt	17	9	9	5	14	9	18
Mtb hypoxia inh growth	nt	9	4	6	6	1	23	12
Sa ugtP lethal	-13	17	10	11	1	1	-14	2

# A draw from above in order of number of heavy atoms, rising:
42: Cc1oc(-c2cccc(C(F)(F)F)c2)nc1CN1CCC[C@H]1CO
47: CS(=O)(=O)N1CCN(c2ccc([N+](=O)[O-])c(NCc3ccc(Cl)cc3)c2)CC1
46: O=c1ccc(-c2ccc(S(=O)(=O)NCC3CCN(Cc4ccccc4F)CC3)s2)n[nH]1

assay / compound	42	47	46
PrP UTR inh	-22	-19	-26
Sa RN4220 lethal	4.0	1.0	1.4
BJeLR lethal	2	-4	-10
Bead autofluor	5209	1981	?
Mtb hypoxia inh	17	9	14
Mtb hypoxia inh growth	9	23	1
Sa ugtP lethal	17	-14	1

# The list goes on:
49: O=C(O)CCC(=O)c1c[nH]c2ccccc12
50: CCC(C)Sc1nc2c(c(=O)[nH]c(=O)n2C)n1C (configuration not stated)
51: COc1ccc(OC)c(/C=C/C(=O)N(C)CC(=O)Nc2cc(C)ccc2C)c1
52: COC(=O)c1c(/N=C/NOCc2ccc(Cl)cc2)sc2c1CCN(c1ncc(C(F)(F)F)cc1Cl)C2
53: COc1cc(/C=N/NC(=O)C2c3ccccc3Oc3ccccc32)ccc1O
54: COCCNc1nc2c(S(=O)(=O)c3cc(C)ccc3C)nnn2c2ccccc12
55: CCOC(=O)CCc1cccc2c1CCC2=O
56: C=CCCOC1OC(C)C(O)CC1O (configuration not stated)

assay / compound	49	50	51	52	53	54	55	56
PrP UTR inh	-30	-28	-1	-21	-5	-3	-37	nt
Sa RN4220 lethal	3.4	0.6	9.7	-12	nt	5.4	9.4	3.3
BJeLR lethal	0	9	16	-12	3	9	-4	nt
Bead autofluor	9924	8120	2743	nt	2499	2574	2753	nt
Mtb hypoxia inh	7	-11	3	3	nt	-3	0	7
Mtb hypoxia inh growth	3	6	4	4	nt	3	0	9
Sa ugtP lethal	2	6	12	-1	nt	-1	-7	0

57: CCN(CC)CCNC(=O)c1sc2nc(-c3ccccc3)cn2c1C
58: O=C(Nc1ccc(Nc2ccccc2)cc1)c1ccc(Cl)cc1[N+](=O)[O-]
59: CCOC(=O)c1cc2occc2n1CC(=O)N1CCCc2ccccc21
60: COc1ccc(N=C2NC(=O)CS2)c([N+](=O)[O-])c1
61: COc1ccc2c(c1)N(C)/C(=C1/SC(=S)N(NC(C)=O)C1=O)S2
62: Cc1cccc(CS(=O)(=O)Cc2ccc(C(=O)N3CCC4(CC3)OCCO4)o2)c1
63: Cc1ccc(C)c(NC(=O)Cn2cnc3c(oc4ccccc43)c2=O)c1
64: COc1cccc(-n2cnnc2SC(C)C(=O)NC2CCCC2)c1 (configuration not stated)

assay / compound	57	58	59	60	61	62	63	64
PrP UTR inh	-29	nt	-43	5	-47	11	-39	-27
Sa RN4220 lethal	6.7	-6.5	4.3	7.5	4.0	4.7	2.4	5.6
BJeLR lethal	-4	3	2	-9	2	-3	2	nt
Bead autofluor	5625	2927	5470	2414	3801	2541	3997	3451
Mtb hypoxia inh	3	-6	3	7	20	2	5	9
Mtb hypoxia inh growth	3	5	10	2	3	8	8	12
Sa ugtP lethal	10	-5	-6	-4	5	1	5	5

65: Cc1ccc(NS(=O)(=O)c2ccc3c(c2)CCN3C(=O)CCC(=O)O)cc1Cl
66: Cc1cccc(N2CCN(C(=O)CSCc3c(C)noc3C)CC2)c1C
67: COc1ccc(-c2nc(CS(=O)CC(=O)NCc3cccnc3)c(C)o2)cc1OC (configuration not stated)
68: COc1ccc(C)c2sc(=NC(=O)C(C)C)n(C)c12

assay / compound	65	66	67	68
PrP UTR inh	nt	-35	-9	-21
Sa RN4220 lethal	6.0	5.3	23	17
BJeLR lethal	6	11	-9	-9
Bead autofluor	4001	23925*	5313	6169
Mtb hypoxia inh	-5	6	-2	-4
Mtb hypoxia inh growth	-2	-1	2	8
Sa ugtP lethal	9	4	21	5

# Structures above that contain an NH in an aromatic ring (eight):
18: CCCCn1c(Cc2ccccc2)n[nH]c1=S
26: O=C(Nc1ccc2[nH]c(=O)[nH]c2c1)Nc1ccc(F)cc1F
27: Cc1ccc(NC(=O)c2ccc(=O)[nH]c2)cc1S(=O)(=O)N1CCCCCC1
37: O=C(Nc1ccon1)c1nc[nH]c1C(=O)NCc1ccccc1
38: COc1ccc(C(=O)CSc2cc(C)[nH]c(=O)n2)cc1
46: O=c1ccc(-c2ccc(S(=O)(=O)NCC3CCN(Cc4ccccc4F)CC3)s2)n[nH]1
49: O=C(O)CCC(=O)c1c[nH]c2ccccc12
50: CCC(C)Sc1nc2c(c(=O)[nH]c(=O)n2C)n1C (configuration not stated)

assay / compound	18	26	27	37	38	46	49	50
PrP UTR inh	-23	-30	-24	4	-60	-26	-30	-28
Sa RN4220 lethal	4.8	3.5	7.8	6.4	5.8	1.4	3.4	0.6
BJeLR lethal	5	-2	nt	nt	-5	-10	0	9
Bead autofluor	9337	4907	4228	3641	nt	?	9924	8120
Mtb hypoxia inh	19	12	8	-5	-3	14	7	-11
Mtb hypoxia inh growth	2	0	12	4	-3	1	3	6
Sa ugtP lethal	-5	3	-1	-2	-11	1	2	6
